Compound activity deposited in PubChem BioAssay by ICCB-Longwood Screening Facility, Harvard Medical School.
Ab BasE inh – inhibitors of Acinetobacter baumannii siderophore enzyme BasE. purified BasE, fluorescence polarization binding displacement. inhibition, % (concentration not given with the values). actives 0.1% (n = 84,000);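 active = both replicates above 25% with normal brightness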;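 also: 0% = negative plate control signal and 100% = positive plate control signal; stock transfer was 100 nL into about 30 µL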
KSHV LANA nucl – inhibitors of KSHV LANA binding to nucleosomes; FITC-LANA1-23 / chicken nucleosome fluorescence polarization; stronger effect = lower value; z-score (concentration not given with the values); AID 720717; actives 0.3% (n = 51,000);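 active = both repeat wells score below -2 in polarization z-score versus plate sample wells, excluding overly bright wells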;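 also: 100 nL library stock added to about 30 µL; numbers are from one replicate; some results filed as inactive read as strong as hits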
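Material: Purified chicken nucleosomes with FITC-labelled LANA N-terminal peptide (1-23) | Reagent: 50 nM FITC-LANA1-23 probe | Medium: TEN-BT buffer, pH 7.5 | Times: 10–45 min incubation at room temperature | Detection: Fluorescence polarization | Replication: Duplicates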
The depositor's hits bear a star; nt = no result given; & = joins results of further samples. Not all compounds are listed; the hit share may differ from the screen's.

Compound | Ab BasE inh | KSHV LANA nucl
Cc1cccc(C(=O)NNc2ncnc3c2cnn3-c2ccc(Cl)cc2)c1 | 0.0 | -0.75
COc1ccc(/C=N/NC(N)=S)cc1 | 5.6 | nt
COc1ccc(-c2cc(-c3nc4c5ccccc5ncn4n3)[nH]n2)cc1 | -0.2 | -0.67
Cc1cc(C(=O)Oc2ccc(Cl)cc2)no1 | 2.4 | -1.4
CCN(C(=O)Cc1ccc(F)cc1)C1CCCCC1 | 0.8 | 0.061
CCn1cc(CCC(=O)NCc2cccs2)c2ccccc21 | 2.2 | -0.33
Cc1ccc(NC(=O)COC(=O)C23CCC(=O)N2c2ccccc2C(=O)N3C2CC2)cc1C (stereo not given) | -0.4 | nt
C1CCC(NC(=NC2C3CC4CC(C3)CC2C4)N2CCOCC2)CC1 (stereo not given) | -1.0 | 0.35
COc1ccc2cc(Br)ccc2c1CC(=O)NN1CCN(C)CC1 | -2.7 | 1.4
O=C(CNc1n[nH]c(=O)[nH]c1=O)N/N=C/c1ccccc1 | 1.9 | -0.17

Compound | Ab BasE inh | KSHV LANA nucl
NNC(=O)c1cccc(NN)n1 | 0.7 | nt
Cn1c(=O)n(C)c2cc(S(=O)(=O)N3CCCCC3)ccc21 | -3.8 | -0.16
COC(=O)C(O)(c1c(-c2ccccc2)nc2sccn12)C(F)(F)F (stereo not given) | 2.0 | nt
CCN(CC(=O)Nc1cccc(F)c1)CC(=O)Nc1ccc2c(c1)OCCO2 | 1.7 | nt
Cc1cc(Br)cc2c1N(C)C(=O)/C2=C1\SC(=Nc2ccc(F)cc2)NC1=O | -2.8 | nt
COc1ccc(NC(C)C(=O)Nc2nccs2)cc1 (stereo not given) | 6.1 | -0.51
CCOc1ccccc1NC(=O)c1oc2ccccc2c1NC(=O)C1CCCO1 (stereo not given) | -0.4 | -1.2
CC(SC(=S)N1CCCC1)C(=O)O (stereo not given) | 0.5 | nt
O=C1CCCc2c1cc(C(=O)O)c(=O)n2-c1ccccc1 | 0.5 | -1.3
CN(C)CCCNC1=CC(=O)OC12CCCCC2 | 1.3 | 0.29

Compound | Ab BasE inh | KSHV LANA nucl
CCC(C)[C@H]1O[C@]2(CC[C@@H]1C)C[C@@H]1C[C@@H](C/C=C(\C)[C@@H](OC3C[C@H](OC)C(O[C@H]4C[C@H](OC)[C@@H](O)[C@H](C)O4)[C@H](C)O3)[C@@H](C)/C=C/C=C3\CO[C@@H]4[C@H](O)C(C)=C[C@@H](C(=O)O1)[C@]34O)O2 (stereo not given in full) | nt | 0.21
O=C(CCNC(=O)c1ccccc1Cl)Nc1ccc2c(c1)OCCO2 | 0.1 | nt
Cc1ccc(C(=O)Nc2ccccc2N2CCCCC2)cc1 | nt | -0.66
CCN(CC)C(=O)CSc1cn(CC(=O)N2CCCC2)c2ccccc12 | 2.9 | -1.9
CCC(C)(C)NC(=O)/C=C/c1cnc2ccccc2n1 | 2.4 | nt
O=c1c(Cl)c(NCCO)ncn1-c1ccccc1 | -0.1 | 0.52
O=C1CC(c2cccc(Br)c2)NC(=O)N1 (stereo not given) | 1.6 | nt
O=C(O)C1C(c2ccccc2)C(C(=O)O)C1c1ccccc1 (stereo not given) | 2.9 | nt
CCn1c(N)c(C(=O)COC(=O)c2ccc(S(=O)(=O)C(F)F)cc2)c(=O)[nH]c1=O | 1.6 | nt
O=C(CSc1nc(=O)n(CCN2CCOCC2)c2c1CCC2)NCc1ccccc1 | 0.5 | -0.62

Compound | Ab BasE inh | KSHV LANA nucl
CC1=NN(c2ccccc2)C(=O)/C1=N\OCC(=O)N1CCCc2ccccc21 | 0.8 | nt
N#Cc1cn(C2CC2)c(=O)n(Cc2ccccc2)c1=O | 0.9 | nt
COC(=O)c1cc2cc(Br)ccc2c(Br)c1OC | 0.1 | nt
CC(=O)OC(COCc1ccccc1)Cn1cnc2ccccc21 (stereo not given) | -1.1 | 1.2
NC(=O)c1nn(-c2ccc(Cl)cc2)c(=O)c2ccccc12 | 3.0 | 0.31
O=C(COc1ccccc1)Nc1cccc(-c2nn[nH]n2)c1 | 2.2 | 1.8
Cc1ccc(NC(=O)CN(C)C(=O)Nc2ccc(C)cc2)cc1 | 2.5 | nt
CC(Cc1ccccc1)N=C1NS(=O)(=O)c2ccccc21 (stereo not given) | -0.1 | -0.04
CCCCN1C(=O)/C(=C2/Sc3ccc(OC)cc3N2C)SC1=S | 6.9 | nt
CC(C)c1ccc(-c2noc(C3CCCN(C(=O)c4ccccc4)C3)n2)cc1 (stereo not given) | 0.5 | -2

Compound | Ab BasE inh | KSHV LANA nucl
Cc1oc(CC(C)C)cc1C(=O)Nc1cccc(C(=O)O)c1 | 2.9 | -0.12
CC1CC(=O)Nc2ccccc2N1C(=O)CSc1ccccn1 (stereo not given) | 1.8 | nt
O=C(COC(=O)Cn1cc(C(F)(F)F)ccc1=O)NCc1ccco1 | -2.0 | nt
O=C(OCc1ccccc1)c1cccc(OC(F)F)c1 | 0.3 | nt
CC1=NC(C(F)(F)F)(C(F)(F)F)C2=C(CC(C)(C)CC2=O)N1CC1CCCO1 (stereo not given) | 0.8 | -1.1
CC(C)(C)c1cc(N=O)cc(C(C)(C)C)c1O | 1.6 | -0.6
CCc1c(CN(C)Cc2ccccc2)csc1C | -1.2 | -0.021
CC(C)COC(=O)Cn1cnc2ccc(Br)cc2c1=O | 1.8 | nt
NNc1nc2c(-c3ccc(Cl)cc3)nnn2c2ccccc12 | -0.8 | -0.72
COc1ccccc1CNC(=O)c1ccccn1 | -0.9 | nt

Compound | Ab BasE inh | KSHV LANA nucl
COc1cccc(NC(=O)CCCSc2nc(-c3ccco3)cc(C(F)(F)F)n2)c1 | -0.9 | -0.57
CN(C(=O)COc1cc(=O)n(C)c2ccccc12)c1ccc(Br)cc1 | 0.6 | 0.42
CC(C(=O)O)c1cccc(C(=O)c2ccccc2)c1 (stereo not given) | -1.5&1.3 | -0.17&-0.24&0.58&0.48
Fc1ccccc1CNCCCn1ccnc1 | -1.1 | -0.17
CC[n+]1c(/C=C2\C=C(C)CC(C)(C)C2)oc2ccccc21 | 0.5 | nt
Cc1[nH]c2ccc(C(=O)OCC(=O)N3CCCC3=O)cc2c1C | -1.7 | nt
O=C(CSCc1cnn(-c2ccccc2)c1-n1cccc1)N1CCN(c2ccccn2)CC1 | -0.7 | 0.17
O=C(NC12CC3CC(CC(C3)C1)C2)c1ccccc1O | 0.6 | -0.057
CC(=O)Nc1ccc(/C=C2\CCc3ccccc3C2=O)cc1 | -1.0 | nt
O=C(O)/C=C/c1ccc(OC(F)F)cc1 | 1.6 | 0.16

Compound | Ab BasE inh | KSHV LANA nucl
COc1ccc(C(c2nnnn2C(C)(C)C)N2CCN(c3ccccc3)CC2)cc1 (stereo not given) | -0.3 | -0.54
c1coc(C2=NCCN2)c1 | 0.9 | -0.08
CC(C)OC1=NS(=O)(=O)c2ccccc21 | -1.9 | 0.24
O=C(NCC1CC1)C1C2C3C4CC5C3C5C4C12 (stereo not given) | 4.9 | -0.31
O=c1cc(C(F)(F)F)nc(SCc2ccccn2)[nH]1 | 1.8 | -0.42
CN1CCN(Cc2cn[nH]c2-c2ccc(F)cc2)CC1 | -0.4 | -0.39
Cn1c(-c2cc(Br)cs2)nc(=O)c2cc(Cl)ccc21 | 3.0 | nt
O=C1CC(c2ccccc2Cl)Cc2nc(NCC3CCCO3)ncc21 (stereo not given) | 2.8 | 0.89
CC(N)C(=O)Nc1ccccc1-c1ccccc1 (stereo not given) | 2.0 | -0.13
Nc1n[nH]c2nc(C(F)(F)F)cc(=O)n12 | 1.8 | 0.043

Compound | Ab BasE inh | KSHV LANA nucl
Cc1ccc(C(C)NC(=O)c2c(-c3ccccc3Cl)noc2C)c(C)c1 (stereo not given) | 4.6 | nt
CC1CCN(c2ncnc3ccc(Br)cc23)CC1 | 1.3 | -1.6
CCc1ccc(C2N3CC4(C)CN2CC(C)(C3)C4)cc1 (stereo not given) | 3.1 | 0.064
O=C(COC(=O)c1cc2c(s1)CCCCC2)c1cccs1 | -0.5 | nt
COc1ccccc1N1CCN(C(=O)CC2SC(N)=NC2=O)CC1 (stereo not given) | 0.8 | nt
CCOC(=O)Oc1cc(N)c(Cl)cc1Cl | nt | 0.11
Cc1cc(C(=O)N(C/C=C/c2ccccc2)c2ccc3c(c2)OCCO3)no1 | -2.7 | nt
COC(=O)c1c(SCc2ccc(C#N)cc2)nc(=O)[nH]c1C | -2.1 | nt
O=C(CCSc1ccccc1)Nc1nccs1 | -0.9 | 0.26
O=S(=O)(NCCCc1nc2ccccc2[nH]1)c1ccccc1 | 1.6 | -1.1

Record cards, as listed above. Values in the order: Ab BasE inh, KSHV LANA nucl
CCC(C)(C)NC(=O)/C=C/c1cnc2ccccc2n1 is listed with 2.4, nt
Cn1c(=O)n(C)c2cc(S(=O)(=O)N3CCCCC3)ccc21 is listed with -3.8, -0.16
CC[n+]1c(/C=C2\C=C(C)CC(C)(C)C2)oc2ccccc21 is listed with 0.5, nt
CCc1c(CN(C)Cc2ccccc2)csc1C is listed with -1.2, -0.021
Cc1cc(C(=O)Oc2ccc(Cl)cc2)no1 is listed with 2.4, -1.4

New compounds follow.
Below each SMILES: Ab BasE inh	KSHV LANA nucl
O=C(CCNC(=O)c1ccccc1Cl)Nc1cc(Cl)ccc1N1CCOCC1
  -7.9	nt
CC1CN(/C(N)=N/S(=O)(=O)c2cc(C(F)(F)F)cc(C(F)(F)F)c2)CC(C)O1 (stereo not given)
  -0.2	nt
COc1ccc(S(N)(=O)=O)cc1C(=O)OCc1cc(=O)oc2cc(NC(C)=O)ccc12
  1.4	nt
COc1cccc(N/C(N)=N/c2nc(CSc3ccccn3)cc(=O)[nH]2)c1
  0.5	-0.43
CC(C)C(NC(=O)c1ccccc1F)C(=O)Nc1ccc(N2CCOCC2)cc1 (stereo not given)
  -1.1	nt
COc1cc(/C=N/N=C2/C(=O)Nc3ccccc32)ccc1OCC(=O)N1CCOCC1
  -1.7	nt
c1ccc2[nH]c(-c3ccc(Sc4nnnn4C4CCCC4)nc3)nc2c1
  2.7	nt
O=C(C1=C(O)C(=O)N(c2nncs2)C1c1cccs1)c1cccs1 (stereo not given)
  25	nt
Cc1ccc(NC(=O)Cn2c(=O)/c(=C3\C(=O)Nc4ccccc43)s/c2=C\C#N)cc1
  -0.1	nt
CCn1cc(C(=O)NCc2ccc3c(c2)OCO3)c(=O)c2cc(S(=O)(=O)N(C)C)ccc21
  -1.3	0.61

Below each SMILES: Ab BasE inh	KSHV LANA nucl
CS(=O)(=O)c1ccc(F)cc1
  -5.0	nt
Cc1ccc(N2CCN(C(=O)N3CCCCCC3)CC2)cc1Cl
  -4.3	-1.4
Cc1ccc(N2C(=O)C(C=NCc3ccc(C(=O)O)cc3)C(=O)NC2=S)cc1 (stereo not given)
  -0.3	nt
CCS(=O)(=O)N1CCC(Oc2ccc(-n3cnnn3)cc2)CC1
  -1.0	-1.4
CC(=O)N(CN1C(=O)c2ccccc2C1=O)c1ccc2ccccc2c1
  0.2	nt
Cc1ccccc1-c1n[nH]c(=S)n1/N=C/c1ccc(N(C)C)cc1
  0.3	-0.22
COc1cc2c(cc1OC)-c1nnc(-c3cccnc3)n1C1(CCCC1)C2
  0.3	-0.23
COc1ccccc1S(=O)(=O)CC(SC#N)c1ccccc1 (stereo not given)
  2.1	-0.46
Clc1ccc(C=NCC2COc3ccccc3O2)cc1 (stereo not given)
  -0.6	nt
Oc1ccccc1N=Cc1c(Cl)nc2sccn12
  nt	-0.79

Below each SMILES: Ab BasE inh	KSHV LANA nucl
CN(C)CCSc1nnc(NCc2ccccc2O)s1
  -1.4	nt
C/C(N)=C(/C#N)C(=O)CN(C)C1CCCCC1
  -1.6	nt
Nc1cccc2c1C(=O)N(CCOc1ccccc1F)C2=O
  8.5	nt
Cc1cccc(NC(=S)N(CCN(C)C)Cc2cc3cc4c(cc3[nH]c2=O)OCO4)c1
  0.4	-0.23
COC(=O)CSc1nc2ccccc2o1
  0.7	nt
Cc1sc2nc(CN3CCOCC3)nc(NS(=O)(=O)c3ccc4c(c3)OCCO4)c2c1C
  -3.9	nt
OCCN1CCN(C(=S)/N=C(/Nc2ccccc2)c2ccccc2)CC1
  -1.1	0.81
CC(C)N1CCC(=O)N(c2ccccc2)C1=O
  2.2	nt
O=C(CCCn1sc2ccccc2c1=O)Nc1ccccc1F
  -0.4	-0.9
Cc1nc2scc(CC(C)C)c2c(=O)[nH]1
  -5.9	nt

Below each SMILES: Ab BasE inh	KSHV LANA nucl
COC(=O)Cn1c(=N)n(CCN2CCCCC2)c2ccccc21
  1.9	-0.88
NC1c2ccccc2-c2ccccc21
  1.1	nt
NC(=O)C1CCCCN1C(=S)NC1CCCCC1 (stereo not given)
  -2.5	nt
O=C(CS(=O)(=O)c1ccccc1)Nc1cccnc1
  2.3	-0.68
Cn1c(=O)n(C)c2cc(C(O)COc3ccc(CNC(C)(C)C)cc3)ccc21 (stereo not given)
  -2.2	0.3
CC1CCc2[nH]nc(C(=O)O)c2C1 (stereo not given)
  0.8	-0.25
COc1ccc(C(=O)COC(=O)c2nn(C)cc2Cl)cc1
  -5.8	0.77
COc1ccc(C2=NN(C(=O)Cn3cc(C(F)(F)F)ccc3=O)C(c3ccco3)C2)cc1 (stereo not given)
  -0.1	nt
CCN(CC)C(=O)CSc1nc2sccc2c(=O)n1-c1ccccc1
  -3.9	nt
COc1cccc(NC(=O)C2(C#N)Cc3ccccc3N3CCCC32)c1 (stereo not given)
  -3.3	nt
O=C(Nc1ccc2c(c1)COC2=O)c1cccc(Cl)c1
  1.1	0.96
COc1ccccc1CCN=Cc1ccnc(SCc2ccc(Cl)cc2Cl)n1
  -2.0	nt
C=C(C)c1cccc(C(C)(C)NC(=O)NCc2cccnc2)c1
  -1.0	0.77
